Bioassay records: PubChem, National Center for Advancing Translational Sciences (NCATS)
VDR inhibitor: blocks the human vitamin D receptor; Potency, µM, inactives show max response, negative = inhibition, usual class: inhibitors; AID 504847; P11473; actives 0.93% (n = 400,000); VDR-SRC2-3 peptide fluorescence polarization, 2 h; active means well fitted inhibition curve with a large enough effect; inconclusive means small, poorly fitted or top-dose-only effect, or another doubt; inactive means no such curve, though single readings can be large or run the other way; further: series mostly up to about 120 µM
Target sequence (P11473 whole entry, looked up): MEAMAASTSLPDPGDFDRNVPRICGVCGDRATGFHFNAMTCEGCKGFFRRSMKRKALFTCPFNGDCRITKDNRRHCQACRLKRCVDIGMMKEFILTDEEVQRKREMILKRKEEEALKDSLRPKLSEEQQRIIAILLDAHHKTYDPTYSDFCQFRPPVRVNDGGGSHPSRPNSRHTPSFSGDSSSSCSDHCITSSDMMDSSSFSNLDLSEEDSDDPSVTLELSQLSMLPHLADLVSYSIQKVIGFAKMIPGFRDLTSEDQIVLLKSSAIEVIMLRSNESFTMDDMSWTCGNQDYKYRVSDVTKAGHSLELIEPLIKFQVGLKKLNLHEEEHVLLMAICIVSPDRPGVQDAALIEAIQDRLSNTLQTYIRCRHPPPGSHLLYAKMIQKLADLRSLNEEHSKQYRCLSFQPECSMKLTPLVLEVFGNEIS
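The screen uses fluorescence polarization to detect compounds that interfere with recruitment of the SRC2-3 coactivator peptide to VDR; plates are read after 2 h at room temperature.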
An asterisk follows results filed as active; ? = inconclusive; & = joins results of further samples. On the % scale 0 is the no-effect control and ±100 the full control effect; potency means the concentration at half of the fitted maximal effect.

SMILES	VDR inhibitor
C=CCNC(=O)C1CCN(S(=O)(=O)c2ccc3ccccc3c2)CC1	-16%
COc1cccc(C2c3c(-c4ccccc4O)n[nH]c3C(=O)N2Cc2ccco2)c1 (centres undefined)	-14%
CSCCC(NS(=O)(=O)c1ccc(C)cc1C)C(=O)Nc1cccnc1 (centres undefined)	-9%
CCCC(C(=O)NCC1CCCO1)N(C(=O)CNS(=O)(=O)c1ccccc1)c1ccc(F)cc1 (centres undefined)	-11%
O=C(OCc1ccccc1)N(CCCCN(CCCNCc1ccccc1)C(=O)OCc1ccccc1)CCCNCc1ccccc1	16%
O=C(CN1CCOCC1)Nc1ncc(Br)cc1Br	-7%
COc1ccc(C(=O)n2nc(-c3ccc(C)cc3)nc2N)cc1OC	0%
CCN(CC)CCN1C(=O)C(=O)/C(=C(/O)c2ccc(S(=O)(=O)N3CCOCC3)cc2)C1c1ccc(C(C)C)cc1 (centres undefined)	-5%
CCOc1ncccc1C(=O)OCC(=O)Nc1cccc(S(=O)(=O)N2CCCCCC2)c1	-4%
O=C(c1ccc(F)cc1)N1CCCC(c2nc(-c3cccs3)no2)C1 (centres undefined)	-12%
Cc1cccc(NC(=S)N(CCCN2CCOCC2)Cc2ccccn2)c1	-14%
CCOC(=O)C1CCN(S(=O)(=O)c2ccc3c(c2)CC(C)N3C(=O)C2CC2)CC1 (centres undefined)	-2%
COc1cccc(CNC(=O)CCNS(=O)(=O)c2ccc3[nH]c(=O)oc3c2)c1	-2%
C=CCN1C(=O)C2(NNc3ccccc3O2)c2ccccc21 (centres undefined)	2%
O=C1[C@H]2C(c3ccccc3)=NN(c3ccccc3)[C@H]2C(=O)N1c1ccccc1	1%
O=C(CSc1nc(N2CCOCC2)nc(N2CCOCC2)n1)Nc1cccc(C(F)(F)F)c1	-5%
C/C(CC(=O)Nc1cccc(C(F)(F)F)c1)=N\NC(=O)C(=O)NCC(C)C	10%
Cc1ccc(-c2c[n+](Cc3cccc(Cl)c3)c3n2CCC3)cc1	4%
COc1ccc(OCC(=O)OCC(=O)NCc2ccco2)cc1	-2%
COc1ccc(CNC(=O)c2cc(-c3ccco3)on2)cc1	-7%
COc1ccc(CCNC(=O)COC(=O)C2CC2C)cc1 (centres undefined)	2%
Cc1cc(N2CCN(c3nc(-c4ccc([N+](=O)[O-])cc4)cs3)CC2)c2ccccc2n1	-8%
CC(OC(=O)C1=COCCO1)C(=O)Nc1ccccc1C#N (centres undefined)	9%
Cc1ccc(S(=O)(=O)N2CCOCC2)cc1C(=O)Nc1ccc2c(c1)CCC2	1%
Cc1ccn(CCNC(=O)C2CCC(=O)N(Cc3ccc(Cl)cc3)C2)n1 (centres undefined)	-17%
(next part)
SMILES	VDR inhibitor
COCc1c(C(=O)N2CCN(Cc3c(F)cccc3Cl)CC2)oc2ccccc12	7%
CN(C)c1ccc(N2C(=O)CC(c3ccccc3)CC2=O)cc1	-15%
O=C(NC(=S)Nc1ccccc1Br)C1CCCC1	5%
Cc1cc(C)c2c(c1)-c1c(ssc1=S)C(C)(C)N2C(=O)CSc1nncn1C	?
O=C(CSc1ccc(Cl)cc1)Nc1ccc(NC(=O)c2ccco2)cc1	-2%
COc1ccc(C(=O)Nn2c(C)nc3ccccc3c2=O)c(OC)c1	-11%
Cc1ccc(NC(=O)C(=O)NCCN2CCN(Cc3ccc([N+](=O)[O-])cc3)CC2)cc1	-5%
Cc1ccc(OCC(=O)NC(C)c2ccccc2)cc1 (centres undefined)	0%
Cc1nn(CCCC(=O)NCCc2ccc(Cl)cc2)c(=O)c2c1sc1ccccc12	11%
COC(=O)Cc1c(C)c2ccc(OCC(=O)N3CCOCC3)cc2oc1=O	8%
CC(C)c1ccccc1N1CC(C(=O)O)CC1=O (centres undefined)	-19%
O=C(NCCN1CCN(c2ccccc2F)CC1)c1cccn2c(=O)c3ccccc3nc12	7%
COCCNC(=S)Nc1ccc(N2CCOCC2)c(S(=O)(=O)Nc2ccccc2OC)c1	?
Cc1cc(C)c(S(=O)(=O)N2CCOC2CNC(=O)C(=O)NCCN2CCOCC2)c(C)c1 (centres undefined)	4%
Fc1ccc(Cn2c(SCc3ccc(F)c(C(F)(F)F)c3)nnc2C(F)(F)F)cc1	11%
O=C(NC(=S)NCC1CCCO1)c1ccc(Br)o1 (centres undefined)	20%
Cc1ccc(S(=O)Cc2nc(-c3ccc(C(=O)NCc4cccc(C)c4)cc3)oc2C)cc1 (centres undefined)	2%
CCN(CC)S(=O)(=O)c1cc(C(=O)c2nccn2C)ccc1Cl	0%
COc1ccc(Cn2nnnc2C(c2cc3cc(C)ccc3[nH]c2=O)N2CCN(C)CC2)cc1 (centres undefined)	-3%
Cc1c(C)c2ccc(OCC(=O)NCCCN3CCCC3=O)cc2oc1=O	8%
O=C(c1cc2c([nH]c1=O)CCCC2)N1CCc2c([nH]c3ccccc23)C1c1ccccc1F (centres undefined)	16%
COCCNC(=O)C(c1cccnc1)N(Cc1ccc(C)cc1)C(=O)Cn1nnc2ccccc21 (centres undefined)	-8%
CCc1cccc(C)c1NC(=O)CCN1C(=O)NC(C)(C)C1=O	-6%
O=C(N/N=C/c1ccc(OC(F)F)cc1OC(F)F)NC1CCCCC1	11%
CCC(C)C(=O)Nc1ccc(S(=O)(=O)N2CCCC2)cc1 (centres undefined)	-3%
Continuation.
SMILES	VDR inhibitor
Cc1cc(C)cc(NC(=O)CN2C(=O)COc3ccc(S(=O)(=O)N4CCCC4)cc32)c1	8%
CCOc1ccc(NC(=O)CSc2nnc(C)n2CC)cc1	-6%
COc1ccc(OC)c(NC(=O)CN2C(=O)C(=O)N(Cc3ccccc3)C2=O)c1	0%
CC(C)c1ccc(/C=N/N2CCN(c3ccccn3)CC2)cc1	-3%
OC1(c2cccs2)CN(c2ccc(Cl)cc2)C2=[N+]1CCCC2 (centres undefined)	16%
Cc1ccccc1NC(=O)COC(=O)CCc1c[nH]c2ccccc12	7%
Cc1cccc(NC(=O)Cn2cc(C(=O)c3ccco3)c3ccccc32)c1	-1%&3%
C/C(=N/NC(=O)c1ccncc1)C1=C(O)CC(C)(C)CC1=O	?
O=C1OCC(CO)(CO)N=C1NNc1ccc(Cl)c(Cl)c1	0%
O=C(Nc1cccc([N+](=O)[O-])c1)c1ccc(CSc2ccccc2)cc1	9%
COc1ccc(NC(=O)CSc2ccc(-c3cccs3)nn2)c(OC)c1	-18%
COc1cccc(-c2nnc(SCC(=O)N3CCCCC3)o2)c1	-10%
O=C(Cc1ccc(F)cc1)Nc1ccc(S(=O)(=O)N2CCCC2)cc1	-16%
COc1cc(/C=C/C(=O)N2CCCN(C(=O)/C=C/c3cc(OC)c(OC)c(OC)c3)CC2)cc(OC)c1OC	2%
Cc1ccc(OCC(=O)N/N=C\c2ccc(O)cc2)c([N+](=O)[O-])c1	3%
CCCCn1nnc(NC(=O)c2sc3cc(Cl)ccc3c2Cl)n1	-2%
COc1ccc(Cl)cc1NC(=O)CN(C)C(=O)CN1C(=O)NC(C)(C)C1=O	-5%
CC(C)(C)C1CCc2nc(NC(=O)c3ccc([N+](=O)[O-])cc3)sc2C1 (centres undefined)	-9%
C/C(=N\Nc1ncc(Cl)cc1Cl)c1ccc(C#N)cc1	-3%
COc1ccccc1C(=O)NNC(=O)c1ccc(Br)o1	3%
OC(CN1CCN(c2ccccn2)CC1)Cn1c2ccc(Cl)cc2c2cc(Cl)ccc21 (centres undefined)	1%
O=C(Cc1ccccc1)NC1(O)C(=O)c2ccccc2C1=O	35µM*
COc1cccc(/C=C2/Sc3ccc(C(=O)NCCN4CCCC4)cc3NC2=O)c1	5%
O=C(NCC(c1ccco1)N1CCOCC1)c1cccc([N+](=O)[O-])c1 (centres undefined)	-8%
CC(C)(C)NC[C@@H](O)COc1cccc2c1CCCC2=O	-3%

Single values from the results shown.
VDR inhibitor, `O=C(NCC(c1ccco1)N1CCOCC1)c1cccc([N+](=O)[O-])c1` (centres undefined) = -8%
VDR inhibitor, `C/C(=N\Nc1ncc(Cl)cc1Cl)c1ccc(C#N)cc1` = -3%
VDR inhibitor, `COc1ccc(Cl)cc1NC(=O)CN(C)C(=O)CN1C(=O)NC(C)(C)C1=O` = -5%
VDR inhibitor, `O=C(Cc1ccc(F)cc1)Nc1ccc(S(=O)(=O)N2CCCC2)cc1` = -16%
VDR inhibitor, `COc1cccc(-c2nnc(SCC(=O)N3CCCCC3)o2)c1` = -10%

New compounds follow:
SMILES	VDR inhibitor
CC1=CC(C)(C)N(C(=O)CSc2nnc(C)s2)c2ccc(C)cc21	5%
CCN(CC)S(=O)(=O)c1ccc(C(=O)Nc2ccc(C(F)(F)F)n(C)c2=O)cc1	2%
CCCCOCCCNC1=NCCCCC1	-9%
O=C(NCCC1=CCCCC1)C1CCCN(S(=O)(=O)c2cccc3cccnc23)C1 (centres undefined)	5%
CCOC(=O)C(Cc1ccccc1)NC(=O)Cn1nnc(-c2ccccc2)n1 (centres undefined)	7%
O=C(C(Cl)c1ccccc1)N1CCCC1 (centres undefined)	-22%
CN(Cc1nc2ccc(F)cc2[nH]1)Cc1c(C(=O)N(C)C)nc2ccc(Cl)cn12	-10%
NC(=S)NNC(=O)[C@@H]1CCCC[C@@H]1C(=O)O	-16%
COc1cc(O)c(C(CCN2CCN(c3ccccc3)CC2)c2ccc(N(C)C)cc2)c(OC)c1 (centres undefined)	-8%&8%
CCOc1ccc(Cn2c(=O)oc3ccccc32)cc1	-19%&7%
c1ccc(Cn2ccnc2SCc2nnc(-c3ccccc3)o2)cc1	12%
CCOC(=O)c1c(NC(=O)c2cccs2)sc(C(=O)N2CCOCC2)c1C	20%
O=C(Nc1nc2ccccc2[nH]1)C1CCCC1	-18%
CC(C)(C)SCCNC(=O)/C=C/c1cccc([N+](=O)[O-])c1	-19%
O=C([C@H](Cc1ccc(O)cc1)n1cc(CCO)nn1)N1CCNCC1	-11%
O=S(=O)(NCc1ccc(Cl)cc1)c1ccc(-c2cnc(C3CC3)o2)cc1	7%
O=C(CSc1nc2ccccc2c2nc3ccccc3n12)NCc1ccco1	-26%
COc1ccc(NC(=O)c2cc(-c3cc(OC)c(OC)c(OC)c3)nc3ccccc23)c(OC)c1	13%
Cc1ccc(NC(=O)c2cnc(SCC(=O)c3ccccc3)n(C)c2=O)cc1	-1%
CCCCOc1ccc(N2C(=O)C(C)CNC2=S)cc1 (centres undefined)	-14%
COc1cccc(SCC(=O)N2CCN(c3ccccc3)CC2)c1	-11%
CCOC(=O)CCCc1c[nH]c2ccccc12	11%
NCCCC(N)(C(=O)O)C(F)F (centres undefined)	-3%&-11%&-2%
COC(=O)c1ccc(N2CCN(c3ccccc3)CC2)c(NC(=O)C2CC2)c1	-16%
CCn1cc(C(=O)NCCCN2CCC(C)CC2)c(=O)c2cc(S(=O)(=O)N3CCOCC3)ccc21	6%

Of the compounds above, these have a cyano group:
SMILES	VDR inhibitor
CC(OC(=O)C1=COCCO1)C(=O)Nc1ccccc1C#N (centres undefined)	9%
C/C(=N\Nc1ncc(Cl)cc1Cl)c1ccc(C#N)cc1	-3%

An excerpt from above in order of their number in VDR inhibitor, high to low:
canonical_smiles,VDR inhibitor
CCOC(=O)CCCc1c[nH]c2ccccc12,11%
COC(=O)c1ccc(N2CCN(c3ccccc3)CC2)c(NC(=O)C2CC2)c1,-16%
O=C(C(Cl)c1ccccc1)N1CCCC1 (centres undefined),-22%

The results go on.
SMILES	VDR inhibitor
CCc1nc2ccccc2n(CCOCCn2c(=O)c(CC)nc3ccccc32)c1=O	-4%
Cc1ccc(C)c(N2CCN(C(c3ccccc3)c3nnc(-c4ccccc4)o3)CC2)c1 (centres undefined)	0%
COc1ccc(C(=O)N2CCN(S(=O)(=O)c3ccc(F)cc3)CC2)cc1OC	10%
CCn1c(-c2ccccc2)c(C(=O)O)c2ccccc21	1%
CSc1ccc(-c2nnn(Cc3ccccn3)n2)cc1	-13%
CN(CC(=O)Nc1ccc(F)cc1)CC(=O)N1CCc2ccccc21	1%
CCCn1c2ccccc2c2nnc(SCC(=O)OCC)nc21	-3%
Cc1cccc(-c2nc(CCNC(=O)Cc3ccccc3)cs2)c1	2%
Nn1c(COc2ccccc2)nnc1SCC(=O)O	12%
COc1ccccc1-c1noc(-c2ccc(NCc3ccco3)c([N+](=O)[O-])c2)n1	4%
C=CCn1c(Cc2ccc(OC)cc2)nnc1SCC(=O)c1cccc([N+](=O)[O-])c1	-4%
CCOC(=O)C1CCN(C(=O)c2cc3cc(C)ccc3[nH]2)CC1	23%
CCCCNC(=O)c1ccc(CS(=O)(=O)c2ccc(C)cc2)o1	-15%
CCOC(=O)c1[nH]c2ccccc2c1NC(=S)Nc1ccccc1	-12%
Cn1cccc1CC(=O)N/N=C/c1cccc2ccccc12	-7%
COc1ccc(CN2CCN(CC=C(C)C)C(CCO)C2)cc1Cn1cncn1 (centres undefined)	-26%
CCN(CC)CCN(C(=O)c1ccc(C(=O)c2ccccc2)cc1)c1nc2cc3c(cc2s1)OCO3	1%
Cc1ccc(S(=O)(=O)N(C)/N=C/C=C/c2ccccc2)cc1	-2%
CCN(CC(=O)NCc1ccc(F)cc1)C(=O)COc1ccccc1[N+](=O)[O-]	5%
Cn1cc(S(=O)(=O)N2CCCCCC2)cc1C(=O)Nc1ccccc1F	4%
O=C(CSCC(=O)N1CCOCC1)Nc1nc(-c2ccc3c(c2)OCO3)cs1	-4%
CN(C(=O)c1cccc(NC(=O)Cc2ccc(NC(=O)C3CCCN(C(=O)CCc4ccccc4)C3)cc2)c1)C1CCCC1 (centres undefined)	6%
CCc1ccccc1NC(=O)CN(c1ccccc1)S(=O)(=O)c1ccsc1C(=O)OC	4%
Cc1cccc(C)c1-n1c(C)cc(/C=N\NC(=O)CC(=O)NC2CCCCC2)c1C	-10%
Cc1ccccc1-n1c(SCC(=O)N2CCN(c3ccccc3)CC2)nnc1-c1ccncc1	-7%

For reference, some entries already given.
SMILES	VDR inhibitor
CCc1nc2ccccc2n(CCOCCn2c(=O)c(CC)nc3ccccc32)c1=O	-4%
Cc1ccc(C)c(N2CCN(C(c3ccccc3)c3nnc(-c4ccccc4)o3)CC2)c1 (centres undefined)	0%

Not all compounds are listed. The share of hits here may be higher or lower than overall.
